Screens as filed in PubChem BioAssay.
Arbovirus anti: arbovirus infection inhibition; arbovirus infection cell-based antiviral screen; inhibition, % at 10 µM; 0.37% of 200,000 active; AID 1251;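 active = inhibition from about 30%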;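 also: bluetongue infection of BSR cells; cell survival read as ATP light after 72 h; 0% = infected wells without compound and 100% = uninfected wells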
YopH inh: YopH (Yersinia) phosphatase inhibition | inhibition, %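 (about 10 µM by stock and volumes)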 | AID 898 | fluorescence Ex485/Em525 | 0.16% of 140,000 active;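 active = inhibition of 50% or more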;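 also: controls were vehicle for no effect and minimum signal wells for full effect; inactives centre near -20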
Mtb growth: M. tuberculosis H37Rv growth inhibitors, H37Rv strain (AID 1626). inhibition, % at 10 µM, or IC50 in µM where a hit was titrated. M. tuberculosis H37Rv growth inhibition; higher % means a stronger effect. 0.95% of 220,000 active;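 active = confirmed in a dose series; inconclusive = inhibition above 80% but not taken into the dose series; inactive = below 80% or under 30% at every dose of the series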;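 also: bacteria incubated seven days before Alamar blue readout; 0% = bacteria only wells and 100% = bacteria with antibiotic wells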
RecA intein inh: Mtb RecA intein splicing inhibition; AID 2221; P9WHJ3; cell-free RecA intein splicing, fluorescence; inhibition, %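 (about 9 µM by stock and volumes)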; 0.75% of 290,000 active; in the data active = inhibition above about 30%; inconclusive = no clear call, values can overlap the other calls;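 also: 0% = vehicle wells and 100% = reference inhibitor control wells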
Target sequence (P9WHJ3 whole entry, looked up): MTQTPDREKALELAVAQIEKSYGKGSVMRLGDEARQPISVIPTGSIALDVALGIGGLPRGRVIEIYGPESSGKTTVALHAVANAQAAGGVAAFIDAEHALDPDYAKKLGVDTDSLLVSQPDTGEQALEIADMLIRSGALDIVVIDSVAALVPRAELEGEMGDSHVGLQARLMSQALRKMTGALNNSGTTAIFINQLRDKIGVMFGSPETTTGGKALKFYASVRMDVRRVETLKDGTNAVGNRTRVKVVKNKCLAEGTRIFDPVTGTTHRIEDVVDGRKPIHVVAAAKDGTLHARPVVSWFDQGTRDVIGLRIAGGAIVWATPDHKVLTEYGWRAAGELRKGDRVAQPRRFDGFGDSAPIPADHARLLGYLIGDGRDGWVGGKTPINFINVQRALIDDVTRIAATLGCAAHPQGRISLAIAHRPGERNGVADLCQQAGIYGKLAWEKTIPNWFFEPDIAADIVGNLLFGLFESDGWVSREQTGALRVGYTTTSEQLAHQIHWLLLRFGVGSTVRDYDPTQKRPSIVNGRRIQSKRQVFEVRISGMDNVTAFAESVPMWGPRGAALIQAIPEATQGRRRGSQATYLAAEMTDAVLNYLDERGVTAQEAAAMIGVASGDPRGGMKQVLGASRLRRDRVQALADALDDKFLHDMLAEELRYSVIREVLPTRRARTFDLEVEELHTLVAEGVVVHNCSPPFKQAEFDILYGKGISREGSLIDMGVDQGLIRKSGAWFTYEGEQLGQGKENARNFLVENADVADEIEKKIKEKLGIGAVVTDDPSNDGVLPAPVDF
Mtb bLac sens: beta-lactam sensitization of Mtb H37Rv | AID 434955 | inhibition, % at 25 µM | M. tuberculosis H37Rv growth with meropenem, percent inhibition; hits of this screen are not shown here | 0.27% of 330,000 active;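 active = about 74% or more and at least 40 points above the plate without the antibiotic, then above 30% in a dose series; inconclusive = first-round hits that could not be retested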;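 also: growth measured after seven days incubation then overnight dye step; 0% = bacteria only wells and 100% = bacteria with antibiotic; twin plates without the antibiotic show which effects depend on it; some results filed as inactive read as strong as hits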
Arbovirus anti repeat: second read-out of Arbovirus anti, no call of its own (marks repeat the call); inhibition, %; measured here: 10K subset replicate screen; many hits read low in the repeat;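 first of two repeat runs on a subset; 0% = infected and 100% = uninfected wells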
Starred values were filed as active, the others as inactive; ? = inconclusive; · = no result given; & = joins results of further samples. This is a subset; rates above refer to the full screens.

SMILES | Arbovirus anti | YopH inh | Mtb growth | RecA intein inh | Mtb bLac sens | others
O=C(NCc1ccco1)c1cc(-c2cccs2)on1 | -17 | -55 | 7% | -5.4 | ?
Nc1cccc2c1C(=O)N(C(=O)/C=C/c1cccc(Br)c1)C2=O | · | · | 4% | -97 | ·
CCc1ccc(S(=O)(=O)n2c(C)nc3ccccc32)cc1 | · | · | · | -1.4 | 5
Cc1cc(OCc2cn3cccnc3n2)ccc1Cl | -3 | 15 | 5% | -3.3 | -3
O=c1[nH]c2cccnc2n1Cc1ccccc1 | -1 | -61 | 3% | 3.6 | -11
CC1(C)C2CCC1(C)C(OC(=O)c1ccc(O)cc1)C2 (centres undefined) | -20 | · | · | 3.3 | -4
Cc1cc([N+](=O)[O-])nn1CC(=O)N1CCCc2ccccc21 | 0 | -27 | 0% | -0.8 | -2
COc1ccc(-c2cc(C(F)(F)F)n3nc(C(=O)N4CCOCC4)c(Cl)c3n2)cc1 | -7 | 1 | 3% | -7.3 | 3
CN(CCn1ccnc1)Cc1cn(-c2ccccc2)nc1-c1ccc2c(c1)OCO2 | 9 | · | ? | -4.7 | 93
O=C(O)COc1ccc2oc3c(c2c1)CCCC3 | · | · | · | -0.3 | -21
O=C(Nc1nc2c(s1)CCCC2=O)c1cnccn1 | 1 | -41 | -2% | 2.5 | 21
Brc1ccc(C2=CC(c3ccco3)n3ncnc3N2)cc1 (centres undefined) | 12 | -14 | -3% | -14 | 50
CCOc1ccc(CCNC(=O)CCc2nc(-c3ccc(C)cc3)no2)cc1OCC | -13 | 34 | 3% | -1.7 | -11
CN(C)S(=O)(=O)c1ccc(NC(=O)CNc2cc(S(=O)(=O)N3CCCC3)ccc2OCC(F)(F)F)cc1 | 2 | -4 | 8% | 0.1 | 29
O=C(CN1CCN(Cc2ccccc2)CC1)Nc1ccc(S(=O)(=O)N2CCOCC2)cc1 | -1 | -24 | 0% | 5.0 | 0
CC1(C)CC(NC(=O)CSc2ccccc2)CC(C)(C)N1 | 2 | · | 4% | -0.6 | -3
CCC1CCCCN1C(=S)NCc1ccccc1 (centres undefined) | 4 | -18 | 6% | -1.9 | -11
O=Cc1cn[nH]c1-c1cccc([N+](=O)[O-])c1 | 0 | · | -1% | -0.2 | -1
COc1ccc(S(=O)(=O)CCC(=O)NC2CCCCC2)cc1 | 5 | -16 | · | 1.6 | -2
O=C(Cn1cnc2c(nnn2Cc2ccccc2F)c1=O)OCc1ccccc1 | 0 | -45 | · | -9.6 | -6
Cc1ccc(N(CC(=O)N2CCn3c2nc2ccccc23)S(=O)(=O)c2c(C)n[nH]c2C)cc1 | 4 | -27 | -7% | 3.1 | -17
CCN(CC)CCNC(=O)c1cc(-c2ccco2)nc2ccccc12 | 3 | · | -4% | -6.7 | -1
COc1ccc(S(=O)(=O)CC2(O)CCN(C(=O)C(C)(C)C)CC2)cc1 | 11 | · | -6% | 2.2 | -3
O=C(c1cccc(Br)c1)c1cn(-c2ccccc2)nc1C(=O)c1ccccc1 | -4 | -21 | · | 8.4 | 3
CC(=O)Nc1ccc(S(=O)(=O)N[C@@H](C)C(=O)OCc2ccc(Cl)cc2)cc1 | -17 | -13 | 4% | 0.3 | -3
O=C(c1ccc(N2CCOCC2)cc1[N+](=O)[O-])N1CCOCC1 | -1 | · | -1% | -1.3 | -3
CC(=O)Nc1ccc(N2CCc3c(C)c(C#N)c4nc5ccccc5n4c32)cc1 | -7 | -41 | 1% | -47 | 3
O=C(NC(=S)Nc1ccc(N2CCOCC2)cc1)c1ccccc1 | 4 | · | 1% | -4.6 | 6
Cc1ccc(S(=O)(=O)N/N=C/c2cc([N+](=O)[O-])ccc2O)cc1[N+](=O)[O-] | 2 | · | -2% | 1.3 | 5
COc1ccc(C(OC(=O)c2ccco2)C(=O)NC(C)(C)C)cc1 (centres undefined) | 5 | · | -10% | -2.1 | -1
O=C(COC(=O)CCCN=C1NS(=O)(=O)c2ccccc21)NC(=O)NC1CCCC1 | 5 | · | 2% | -1.9 | -8
CCC(=O)c1ccc(CCCCCC(=O)O)s1 | -1 | -43 | · | 2.4 | -13 | Arbovirus anti repeat=3
CC1=C(Nc2ccc(C(=O)O)cc2)C(=O)c2ccccc2C1=O | · | · | · | 8.7 | 0
O=C(/C=C/c1ccccc1)N/C(=C\c1ccco1)C(=O)O | 6 | · | -5% | -0.9 | 5
CC(=O)c1cc(C(=O)Nc2ccc3ccccc3c2)c(C)o1 | · | · | · | 8.2 | -3
CC(=O)C1C(c2ccc3ncccc3c2)NC(=O)NC1(O)C(F)(F)F (centres undefined) | 2 | 31 | -6% | -1.7 | ?
Cc1ccc(C(=O)N2CCN(C3c4cccc5cccc(c45)C3NS(=O)(=O)c3ccccc3)CC2)cc1 (centres undefined) | -16 | -86 | 9% | 16 | 61
C=CCNC(=O)c1ccc(-c2ccc([N+](=O)[O-])cc2)o1 | -9 | -18 | 3% | 3.5 | 3
CCCc1cc(=O)oc2cc(OCc3nn[nH]n3)ccc12 | -1 | -24 | -5% | -2.4 | -2
C#Cc1cccc(NC(=O)c2ccc3c(c2)C(=O)N(Cc2cccnc2)C3=O)c1 | · | · | · | -1.8 | -6
CC1(C)CN=c2s/c(=C\c3ccc(Cl)cc3)c(=O)n2C1 | -1 | · | -5% | 4.5 | 5
O=C1C=C(c2ccccc2)OC2(CCCC2)O1 | 2 | -28 | -1% | -5.8 | ?
Cc1cc(/C=C2\SC(=S)NC2=O)c(C)n1-c1ccc(O)cc1 | · | · | 0% | -7.8 | -1
Cc1cc(C)cc(NC(=S)NC(=O)Cc2ccccc2)c1 | · | · | · | 7.4 | 1
CCOC(=O)c1c(N=CN(C)C)c2cc([N+](=O)[O-])cnc2n1C | · | · | 4% | 1.1 | -6
Cc1cc(C)c2c(C)nn(-c3ccccc3)c2n1 | -3 | 2 | 10% | 3.2 | -2
COC(=O)CCC(=O)NC(=S)Nc1sc(C)c(C)c1C(N)=O | -14 | -17 | 4% | -3.4 | -2
CCCOC(=O)c1ccc(NC(=O)/C=C/c2cccs2)cc1 | -7 | -32 | 4.1µM* | 5.7 | 98
COc1ccc(OC)c(NC(=O)CCCc2ccccc2)c1 | · | · | · | 0.7 | -3
COc1ccccc1N(CC1CO1)S(=O)(=O)c1ccccc1 (centres undefined) | · | · | · | 5.7 | 7
COc1cc(OC)c(NC(=O)CC(=O)Nc2cc(Cl)c(OC)cc2OC)cc1Cl | · | · | · | -1.8 | -4
CC1CC(=O)N(CC(=O)Nc2ccc3c(c2)OCCO3)c2ccccc2S1 (centres undefined) | -2 | -27 | -8% | 2.9 | 0
Cc1ccc(-c2cc(C(=O)N/N=C/C=C/c3ccccc3)n[nH]2)s1 | -5 | -18 | 37% | 0.4 | 98
CCC(C)(NC(=O)Cc1c[nH]c2ccccc12)C(=O)NC1CCCCC1 (centres undefined) | -1 | -5 | -1% | -2.7 | 0
Cc1cc([N+](=O)[O-])nn1CC(=O)NCc1cccs1 | 7 | -30 | 7% | 2.9 | -1
CCOC(=O)C1=C(C)NC2(O)c3ccccc3C(=O)C12O (centres undefined) | -7 | 68* | -5% | 33* | -4
COc1cc(C(=O)NCCSc2ccc(F)cc2)cc(OC)c1OC | · | · | · | -2.3 | -6
CC(c1nnnn1C1CCCCC1)N(Cc1ccccc1)Cc1cccnc1 (centres undefined) | -4 | -15 | 4% | 1.3 | -7
CN(C(=S)Nc1ccc(Oc2ccccc2)cc1)c1ccc(O)cc1 | -31 | 6 | 58% | 14 | -2
CCOC(=O)C1(Cc2ccccc2C(F)(F)F)CCN(C2CCN(C(C)C)CC2)CC1 | -31 | · | -6% | -0.2 | -6

2 records drawn at random from the list so far, as already listed:
SMILES | Arbovirus anti | YopH inh | Mtb growth | RecA intein inh | Mtb bLac sens | others
CCOC(=O)C1=C(C)NC2(O)c3ccccc3C(=O)C12O (centres undefined) | -7 | 68* | -5% | 33* | -4
CC1CC(=O)N(CC(=O)Nc2ccc3c(c2)OCCO3)c2ccccc2S1 (centres undefined) | -2 | -27 | -8% | 2.9 | 0

The results go on:
SMILES | Arbovirus anti | YopH inh | Mtb growth | RecA intein inh | Mtb bLac sens | others
COc1ccccc1C(=O)C1Nc2ccccc2-c2nnc(SC)nc2O1 (centres undefined) | -4 | 6 | -3% | · | 9
Cc1ccccc1NC(=S)N(CCN(C)C)C(C)c1cccnc1 (centres undefined) | 4 | · | 4% | 0.1 | 9
N/C(=N\N=C\c1cccc([N+](=O)[O-])c1)c1nonc1N | · | · | 5% | 1.8 | -1
O=C(NCc1ccccc1Br)c1ccco1 | -4 | -38 | -1% | -0.7 | -5
O=C(NC(=S)Nc1cnc2ccccc2c1)c1ccccc1 | -5 | · | ? | 1.8 | 76
O=C(NCCCN1CCOCC1)C1CCC(=O)N1CCc1ccccc1 (centres undefined) | 6 | -42 | -3% | -4.5 | 1 | Arbovirus anti repeat=-3
NC(=O)c1cccc2cc3ccccc3cc12 | 4 | · | -5% | -23 | 1
CCOCCOC(=O)c1[nH]c2c(c1C)C(=O)CC(c1cccs1)C2 (centres undefined) | -5 | · | 3% | 1.2 | 2
O=C(O)c1ccc(S(=O)(=O)NC2CC2)cc1 | · | · | 9% | 2.0 | 1
COc1ccc(C(=O)N2CCN(CCc3ccccn3)CC2)cc1 | · | · | · | 2.9 | -1
COc1ccc(S(=O)(=O)N2CCN(C3CCCCCCC3)CC2)cc1 | 0&-10 | -5 | 5% | 0.1 | -3
CN1CCN(CC#CC2(O)CCCCC2)CC1 | 2 | -35 | -16% | -0.2 | 4
COC(=O)c1cc(C(O)(C(=O)OC)C(F)(F)F)c(/N=C/N(C)C)s1 (centres undefined) | -2 | -31 | -5% | 0.0 | -6
Cc1cc(=O)oc2cc(OC(C)C(=O)NC3CCCC3)ccc12 (centres undefined) | · | · | · | -2.8 | -6
CCCCCn1c(=O)[nH]c2cc(C(=O)NCCCN3CCC(C)CC3)ccc2c1=O | -17 | -38 | -8% | -0.2 | -7 | Arbovirus anti repeat=-14
O=C(Nc1ccc(CN2CCOCC2)cc1)c1cccs1 | -3 | -62 | 0% | 3.2 | -14
CCOC(=O)N/N=C(\c1ccccc1)C(O)c1ccccc1 (centres undefined) | -3 | · | -5% | -2.2 | 7
Cc1nc2ccc(NC(=O)c3cc(S(=O)(=O)N4CCOCC4)ccc3C)cc2s1 | 17 | -26 | 2% | -1.5 | -8
COC(=O)c1ccccc1NC(=O)Cc1ccccc1OC | -5 | -30 | 1% | 0.7 | 5
CC(Sc1nc(-c2ccccc2)cc(C(F)(F)F)n1)C(=O)N1CCCC1 (centres undefined) | 5 | -21 | 0% | 1.8 | 0 | Arbovirus anti repeat=2
CCOC(=O)N1CCN(c2c(NCCCN(C)c3ccccc3)c(=O)c2=O)CC1 | 7 | -8 | 3% | -1.5 | -2
N=c1n(CCOc2ccccc2)c2ccccc2n1CCN1CCOCC1 | 1 | -1 | 0% | -4.5 | 2 | Arbovirus anti repeat=-10

Gathered by group: the entries above with an aryl methoxy group.
SMILES | Arbovirus anti | YopH inh | Mtb growth | RecA intein inh | Mtb bLac sens | others
COc1ccc(-c2cc(C(F)(F)F)n3nc(C(=O)N4CCOCC4)c(Cl)c3n2)cc1 | -7 | 1 | 3% | -7.3 | 3
COc1ccc(S(=O)(=O)CCC(=O)NC2CCCCC2)cc1 | 5 | -16 | · | 1.6 | -2
COc1ccc(S(=O)(=O)CC2(O)CCN(C(=O)C(C)(C)C)CC2)cc1 | 11 | · | -6% | 2.2 | -3
COc1ccc(C(OC(=O)c2ccco2)C(=O)NC(C)(C)C)cc1 (centres undefined) | 5 | · | -10% | -2.1 | -1
COc1ccc(OC)c(NC(=O)CCCc2ccccc2)c1 | · | · | · | 0.7 | -3
COc1ccccc1N(CC1CO1)S(=O)(=O)c1ccccc1 (centres undefined) | · | · | · | 5.7 | 7
COc1cc(OC)c(NC(=O)CC(=O)Nc2cc(Cl)c(OC)cc2OC)cc1Cl | · | · | · | -1.8 | -4
COc1cc(C(=O)NCCSc2ccc(F)cc2)cc(OC)c1OC | · | · | · | -2.3 | -6
COc1ccccc1C(=O)C1Nc2ccccc2-c2nnc(SC)nc2O1 (centres undefined) | -4 | 6 | -3% | · | 9
COc1ccc(C(=O)N2CCN(CCc3ccccn3)CC2)cc1 | · | · | · | 2.9 | -1
COc1ccc(S(=O)(=O)N2CCN(C3CCCCCCC3)CC2)cc1 | 0&-10 | -5 | 5% | 0.1 | -3
COC(=O)c1ccccc1NC(=O)Cc1ccccc1OC | -5 | -30 | 1% | 0.7 | 5
